Screening data deposited in PubChem BioAssay by National Center for Advancing Translational Sciences (NCATS).
Rango complex inh – Rango-importin beta binding inhibition | Q14974 | Rango CFP/YFP FRET sensor + importin beta, 45 min | Potency, µM (series often up to 92.2 µM), inactives show top-dose inhibition of complex formation | 340,000 compounds, 0.031% hits | AID 540263; active = rising FRET ratio curve, often small or poorly fitted; inconclusive = mostly compound fluorescence or quenching in the first reads; inactive = flat curves in all reads;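 note: potency is the fitted concentration of half-maximal effect; 0% = DMSO wells and 100% = buffer wells lacking importin beta; nearly all actives have a fitted effect of over 15% in size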
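FRET biosensor (snurportin 1 IBB flanked by EYFP and cerulean), 50 nM, with compound 5 min, then 0.125 microM importin beta in PBS, 1 mM DTT, 0.02% Tween-20, 0.1% BSA. CFP/YFP ratio read after 45 min at room temperature; pre-read flags interference.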
Rango dissoc inh – prevents RanGTP from dissociating the Rango-importin beta complex. Potency, µM (titrated, usually from 46.1 µM), for inactives: at the highest dose activity change, negative = inhibition. O95149+P62826. 340,000 compounds, 0.071% hits. AID 540253. Biochemical FRET Rango-importin beta, RanGTP-induced dissociation; active means falling FRET ratio curve, often poorly fitted, with flat reads before Ran was added; inconclusive means other falling curves, or compound fluorescence or quenching; inactive means flat or rising ratio curve;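 note: potency is the fitted concentration of half-maximal effect; % of control where 0% means no effect; nearly all actives have a fitted effect of over 45% in size; -100% = wells without RanGTP and RCC1; the record marks most hits as doubtful in a second field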
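Two FRET readings bracket the reaction: one 5 min after compound meets Rango–importin beta, another 45 min after RanGTP-RCC1 (0.6 uM Ran, 0.2 uM RCC1, 2 mM GTP) is added. Only the second defines inhibition.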
miR-21 reporter – raises the signal of a miR-21 reporter; HeLa miR-21 FLuc reporter, luciferase, 48 h; Potency, µM (doses to about 38.3 µM), inactives show at the highest dose reporter change, positive = more light; 340,000 tested, under 10 active; AID 2288; active = well fitted rising curve with a large enough effect; inconclusive = small, poorly fitted or top-dose-only effect; inactive = no such curve, though single readings can be large or run the other way;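 note: % of control where 0% means no effect; miR-21 action dims this reporter so a rising signal means less miR-21 action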
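HeLa cells endogenously expressing miR-21, stably carrying CMV-driven firefly luciferase with a downstream miR-21 binding site, 2000 cells/well. Titrations up to approximately 40 uM, 48 hours; luciferase luminescence read.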
GLA inh pH 4.5 – inhibitors of human alpha-galactosidase A at pH 4.5; purified enzyme, 4-MU-alpha-Gal fluorescence, pH 4.5; AID 1467; P06280; activity change, negative = inhibition, % at 105 µM; 230,000 tested, under 10 active; inconclusive = small, poorly fitted or top-dose-only inhibition, or a rising curve; inactive = flat fitted curve, though single readings scatter; no compound was filed as active;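 note: 0% = full activity with enzyme and -100% = basal without enzyme; dose as in the result columns while the protocol names 77 µM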
Target sequence (P06280 whole entry, looked up): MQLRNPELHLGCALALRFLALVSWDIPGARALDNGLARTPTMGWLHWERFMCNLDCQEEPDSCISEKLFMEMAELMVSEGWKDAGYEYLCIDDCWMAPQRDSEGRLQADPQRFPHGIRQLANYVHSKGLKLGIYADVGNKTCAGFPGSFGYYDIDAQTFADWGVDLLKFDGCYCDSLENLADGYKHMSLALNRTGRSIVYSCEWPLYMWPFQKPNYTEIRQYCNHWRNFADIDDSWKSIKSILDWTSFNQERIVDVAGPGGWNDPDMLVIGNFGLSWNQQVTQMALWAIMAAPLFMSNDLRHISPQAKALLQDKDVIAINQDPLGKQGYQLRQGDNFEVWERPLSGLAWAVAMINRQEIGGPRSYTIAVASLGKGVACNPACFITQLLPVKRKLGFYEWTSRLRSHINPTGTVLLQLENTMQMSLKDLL
* hit, by the source's call; ? = inconclusive; / = not tested or not shown; & = joins results of further samples; [ ] = another dose, or the depositor's remark.

Rango complex inh	Rango dissoc inh	miR-21 reporter	GLA inh pH 4.5	Structure
-2.2%	2%	8%	-11	S=C(NCCc1ccccn1)Nc1cc(Cl)cc(Cl)c1
-1.1%	-2%	-1%	-12	CCC(=O)N1C(Cc2ccccc2)COC1(C)C (stereo unspecified)
7.2%	0%	/	/	CCc1ccc(/C(C)=N/NC(=O)C(O)c2ccccc2)s1 (stereo unspecified)
-0.1%	3%	0%	3	O=C(Cc1ccccc1)NC(NCCCN1CCOCC1)(C(F)(F)F)C(F)(F)F
-0.2%	0%	8%	/	COc1cccc(Nc2nc(-c3ccccc3)nc3ccccc23)c1
-1.7%	-13%	1%	/	COc1c(Br)cc(Br)cc1C(=O)Nc1ccccc1N1CCCC1
-1.8%	-6%	-5%	4	O=C(NC1CCc2ccccc21)C1CCN(S(=O)(=O)c2ccc(-n3cnnn3)cc2)CC1 (stereo unspecified)
0.2%	-2%	-3%	4	O=c1c2cnn(-c3ccc(F)cc3)c2ncn1Cc1cccnc1
-0.9%	9%	/	/	O=C(NCCCl)Nc1ncn[nH]1
1.1%	-5%	-11%	-4	CCCC(=O)Nc1ccc(OCC(=O)OC)cc1
-3.9%	-12%	-1%	-1	O=S1(=O)CC2NC(=S)N(c3cccc(Br)c3)C2C1 (stereo unspecified)
0.2%	-2%	20%	2	O=C(NC(c1ccccc1)c1ccccc1)c1cccc(S(=O)(=O)NCc2ccccc2)c1
-1.1%	-1%	14%	/	O=c1[nH]c2ccc(Cl)cc2c(-c2ccccc2)c1[N+](=O)[O-]
-4.9%	20%	-8%	/	O=C(c1ccco1)N1CCN(C(=O)C2CC(c3ccccc3F)=NO2)CC1 (stereo unspecified)
14%	8%	-47%	5	COC(=O)Cc1ccc(OCc2ccc(Cl)nc2)cc1
-1.6%	-4%	-12%	-5	COc1ccc(CNC(=S)N/N=C(\C)c2ccc(OC)cc2)cc1
-2.7%	7%	/	/	O=C(CNC(=O)c1ccc2c(c1)OCO2)NCc1cccs1
1.9%	73%	1%	/	O=C(CN1C(=O)S/C(=C\c2ccc(C(=O)O)cc2)C1=O)Nc1ccccc1
-2.8%	1%	/	/	CC(O)(CC(=O)CC(=O)c1ccccc1)c1ccccc1 (stereo unspecified)
-1.5%	-14%	0%	6	CC(=O)Oc1cc2c(C(=O)NCc3ccncc3)c(C)oc2c2ccccc12
-5.0%	27%	5%	9	COC(=O)c1c(NC(=O)CSc2ccccc2N)sc(C)c1C
-1.8%	-3%	15%	4	O=C(Cc1ccc(-c2ccccc2)cc1)NCc1ccccc1
1.8%	7%	-2%	-1	COc1ccc(S(=O)(=O)NCCC(=O)NC(C)c2ccccc2)cc1 (stereo unspecified)
-0.7%	4%	-10%	1	Cc1ccc(NS(=O)(=O)c2cccc(C(=O)O)c2)cc1S(=O)(=O)N1CCOCC1
4.1%	18%	-8%	-7	O=C(NC1(C(F)(F)F)NC(=O)N(c2ccc(F)c(Cl)c2)C1=O)c1ccncc1 (stereo unspecified)

Part of the list above, limited to GLA inh pH 4.5, miR-21 reporter and Rango complex inh.
| Structure | GLA inh pH 4.5 | miR-21 reporter | Rango complex inh |
| --- | --- | --- | --- |
| CC(O)(CC(=O)CC(=O)c1ccccc1)c1ccccc1 (stereo unspecified) | / | / | -2.8% |
| CC(=O)Oc1cc2c(C(=O)NCc3ccncc3)c(C)oc2c2ccccc12 | 6 | 0% | -1.5% |

Additional compounds.
Rango complex inh	Rango dissoc inh	miR-21 reporter	GLA inh pH 4.5	Structure
-0.2%	-7%	-15%	/	CC1CCN(C(=O)CSc2n[nH]c(-c3cccs3)n2)CC1
?	?	-12%	1	CCCOc1ccc(C(=O)N/N=C/c2ccc(-c3ccc(S(=O)(=O)Nc4ncccn4)cc3)o2)cc1
-0.9%	-4%	-8%	8	NC(=O)c1ccsc1NC(=O)CSc1nnc(C2CC2)n1Cc1ccccc1
-0.9%	3%	-1%	/	O=C([C@@H]1Cc2ccccc2CN1)N1CCN(Cc2ccccc2)CC1
-1.9%	20%	-4%	-7	COc1ccccc1CNC(=O)c1nnc(Cc2ccc(Cl)cc2)o1
0.5%	7%	/	/	COc1ccc(-c2ccc3c(c2)[C@@H]2C[C@H](N(C)C(=O)Nc4ccccc4)[C@H]([C@H](C)O)C(=O)N2CC3)cc1
0.1%	12%	2%	-1	O=C(O)c1ccccc1/C=N/Nc1ccc(S(=O)(=O)N2CCOCC2)cc1[N+](=O)[O-]
-1.7%	4%	5%&0%	5	COc1ccc(NC(=O)CCNS(=O)(=O)c2cccc3nsnc23)cc1
-5.1%	22%	-1%	10	CCOC(=O)C1CCN(C(=O)CSc2n[nH]c(=O)[nH]c2=O)CC1
-5.8%	-3%	/	/	CCCCCCCCNCCS(=O)(=O)NCc1ccc(OC)cc1
-4.9%	-10%	-31%	/	O=C1NN(c2ccccc2)C(=O)/C1=C/c1ccc(-c2cccc(C(=O)O)c2)o1
-0.3%	9%	-2%	2	CN(Cc1ccccc1)c1ccc(C(=O)O)cc1[N+](=O)[O-]
-2.3%	0%	0%	2	COc1cc(CNc2ccc(N3CCOCC3)c(C(=O)O)c2)ccc1OCC(N)=O
2.7%	-7%	2%	2	CC1CC(=O)N(c2ccc(NCc3ccc(Cl)cc3)c([N+](=O)[O-])c2)C1=O (stereo unspecified)
2.7%	3%	11%	/	CCC1CCCCN1S(=O)(=O)c1ccc(C(=O)Nc2nnc(C3=COCCO3)o2)cc1 (stereo unspecified)
-0.3%	3%	-5%	3	CCN1C2OC3OC4C(OC3OC2N(CC)S1(=O)=O)N(CC)S(=O)(=O)N4CC (stereo unspecified)
-0.5%	-6%	-1%	/	COc1ccc(CNC(=O)C(c2ccco2)N(C(=O)c2snc(C(N)=O)c2N)c2cccc(OC)c2)cc1 (stereo unspecified)
3.8%	-4%	0%	2	COc1cc(N=c2ssnc2Cl)cc(OC)c1
0.0%	3%	2%	/	O=C(COc1ccc2c(-c3ccccc3)cc(=O)oc2c1)Nc1cccnc1
?	-16%	/	/	CCOc1ccc(/C=C(\C(=O)O)c2ccc(S(=O)(=O)N3CCCCC3)s2)cc1OC
-5.5%	-13%	-1%	-19	On1onc2c3cc(-c4ccccc4)nc3ccc21
0.2%	-7%	-1%	2	Nc1c(C(=O)NCCc2ccccc2)nnn1Cc1ccc(Br)cc1F
0.4%	-2%	-2%	/	Nc1nonc1-n1nnc(C(=O)N/N=C/C2CCCCC2)c1-c1ccccc1
-0.5%	16%	-3%	/	COc1cccc(OC)c1C(=O)NC(C)CCc1ccccc1 (stereo unspecified)
0.9%	15%	-12%	-2	O=C(Cn1cc2c(n1)CCCC2)NCc1cccs1

Of the compounds above, 7 contain a thiophene ring, fused or not.
Rango complex inh	Rango dissoc inh	miR-21 reporter	GLA inh pH 4.5	Structure
7.2%	0%	/	/	CCc1ccc(/C(C)=N/NC(=O)C(O)c2ccccc2)s1 (stereo unspecified)
-2.7%	7%	/	/	O=C(CNC(=O)c1ccc2c(c1)OCO2)NCc1cccs1
-5.0%	27%	5%	9	COC(=O)c1c(NC(=O)CSc2ccccc2N)sc(C)c1C
-0.2%	-7%	-15%	/	CC1CCN(C(=O)CSc2n[nH]c(-c3cccs3)n2)CC1
-0.9%	-4%	-8%	8	NC(=O)c1ccsc1NC(=O)CSc1nnc(C2CC2)n1Cc1ccccc1
?	-16%	/	/	CCOc1ccc(/C=C(\C(=O)O)c2ccc(S(=O)(=O)N3CCCCC3)s2)cc1OC
0.9%	15%	-12%	-2	O=C(Cn1cc2c(n1)CCCC2)NCc1cccs1

Next part
Rango complex inh	Rango dissoc inh	miR-21 reporter	GLA inh pH 4.5	Structure
2.2%	-7%	/	/	Cc1ccc(C)c(Oc2ccc(S(=O)(=O)N3CCN(C)CC3)cn2)c1
4.1µM*	18%	-21%	-1	CC(C)c1ccc(NC(=O)C2CC(=O)N(C(C)C)C2)cc1 (stereo unspecified)
-0.6%	0%	0%&6%	-7[21.1 µM]	COCCCNC(=O)CSc1nc2cc3c(cc2c(=O)n1CCCC(=O)NCc1ccc(OC)cc1)OCO3
-4.4%	32%	-24%	-5	CN(CC(=O)Nc1ccc(N2CCOCC2)cc1)CC(=O)Nc1ccc(Cl)cc1[N+](=O)[O-]
1.1%	-2%	1%	-1	O=C(O)COCC(=O)Nc1cc(C(F)(F)F)cc(C(F)(F)F)c1
4.5%	-11%	0%	/	O=C(Nc1nccs1)C1CC(=O)N(c2ccc(F)cc2)C1 (stereo unspecified)
1.5%	9%	6%	/	COc1ccc(CNC(=O)CN(Cc2ccco2)C(=O)CCC(=O)Nc2ccccn2)cc1
-2.1%	0%	-3%	7	N#C/C(=C\N1CCOCC1)S(=O)(=O)c1ccc(Cl)cc1
-6.8%	-10%	-2%	-4	Fc1cccc(F)c1/C=N/N1CCOCC1
1.3%	-5%	-4%	-7	COc1cccc(CNC(=O)C(c2ccc(Cl)cc2)C(C)C)c1 (stereo unspecified)
0.4%	22%	0%	3	CN(C)c1cncc(C(=O)O)c1
0.1%	-6%	-11%	/	Cc1ccc(C)c(OCCCCN2CCNCC2)c1C
-1.1%	14%	-2%	7	O=C1N=C(N2CCCC2)CN1c1ccccc1
/	/	?	2	COc1ccccc1-c1cc(C(=O)N2CCc3ccccc3C2)c2ccccc2n1
0.4%	1%	24%	/	CC(C)n1c(N2CCN(S(=O)(=O)c3cccc([N+](=O)[O-])c3)CC2)nc2ccccc21
-0.5%	-10%	17%	-9	CCOCc1cn(CC(=O)c2ccc([N+](=O)[O-])cc2)c(C)nc1=N
-1.1%	-6%	0%	-2	O=S(=O)(c1ccc(-n2cnnn2)cc1)N(C1CCCCC1)C1CCCCC1
-1.9%	-15%	-51%	7&7	COc1ccc(-c2cc(=O)c3cc(OC)ccc3o2)cc1
-3.2%	-3%	/	/	CCOc1ccc(C(C)NC(=O)C2CCN(S(=O)(=O)c3ccc(OC)cc3)CC2)cc1OCC (stereo unspecified)
1.2%	-5%	/	/	CCOC(=O)N1CCN(C(=O)COC(=O)CNC(=O)c2ccc(OCC)c(OCC)c2)CC1
0.0%	-6%	-2%	5	COc1ccc(N2C(=S)N=C(Nc3cccc(C)c3)C23CCCCC3)cc1
?	-5%	-9%	2	COC(=O)/C(=C\C(=O)c1ccc([N+](=O)[O-])cc1)Nc1ccc(OC)cc1
0.2%	12%	-2%	-5	CN(C)c1ccc(C(=O)OCC(=O)NC2CCCCC2)cc1
0.4%	-6%	/	/	Cc1ccc(C)c(OC(=O)C2CSC3(C)CCC(=O)N23)c1C (stereo unspecified)
0.9%	16%	-10%	2	CS(=O)(=O)c1ccc2nc(NC(=O)Nc3ccc(Cl)c(Cl)c3)sc2c1
-2.5%	-3%	0%	/	CC1CC(C)CN(CCCNC(=O)Cn2ncc3c([nH]c4ccccc43)c2=O)C1 (stereo unspecified)
-2.2%	-15%	/	/	CN(CC(=O)Nc1sccc1C(N)=O)S(=O)(=O)c1ccc(Cl)cc1
0.2%	6%	/	/	CC(OC(=O)c1ccc(NC(=O)CC#N)cc1)C(=O)NCCC1=CCCCC1 (stereo unspecified)
0.5%	8%	-47%	5	Cc1ccc(NC(=O)c2ccc(Cl)cc2Cl)cc1O
1.7%	17%	-4%	8	Cc1ccc(CNC(=O)C2CCC(=O)N2C2CCCCC2)cc1 (stereo unspecified)
?	-17%	-61%	-1	COc1ccccc1C(=O)N=c1sc2c(C)ccc(OC)c2n1C
6.8%	1%	3%	4	COc1ccc(-c2nnc(SCC(=O)Nc3ccccc3)n2C)cc1

Only part of the results is shown, so the mix of outcomes need not match the whole.
